RGS16-Gao – regulators of human RGS16-Galphao interaction; O15492+P09471; bead-based flow cytometry RGS16-Galphao binding, fluorescence; actives lie on both sides; binding response (% of control), % at 10 µM; actives 0.38% (n = 220,000); AID 1441;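 active means below 25% or above 175%, edge rows of some plates excepted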;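 further: Galphao activated by GDP with aluminum fluoride before binding; 100% = wells without compound and 0% = beads without RGS; some results beyond the cut were filed as inactive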
Target sequence (O15492 whole entry, looked up): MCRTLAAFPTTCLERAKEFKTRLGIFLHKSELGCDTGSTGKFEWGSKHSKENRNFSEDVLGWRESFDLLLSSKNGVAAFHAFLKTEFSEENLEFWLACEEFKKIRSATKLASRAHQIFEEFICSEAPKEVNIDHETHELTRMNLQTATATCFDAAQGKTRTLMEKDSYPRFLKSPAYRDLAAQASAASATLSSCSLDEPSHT
Target sequence (P09471 whole entry, looked up): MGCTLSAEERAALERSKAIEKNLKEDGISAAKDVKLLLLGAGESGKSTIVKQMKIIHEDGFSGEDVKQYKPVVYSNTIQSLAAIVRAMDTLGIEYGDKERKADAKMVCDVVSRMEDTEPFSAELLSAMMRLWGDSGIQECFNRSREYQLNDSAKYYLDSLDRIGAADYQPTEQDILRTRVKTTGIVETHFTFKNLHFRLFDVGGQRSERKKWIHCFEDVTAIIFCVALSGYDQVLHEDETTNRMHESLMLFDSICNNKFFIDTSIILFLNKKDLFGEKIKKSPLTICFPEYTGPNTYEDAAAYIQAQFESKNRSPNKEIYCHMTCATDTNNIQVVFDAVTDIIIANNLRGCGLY
HSV augment – HSV replication enhancement; actives 0.005% (n = 220,000); maximum fold increase; AID 1956; HSV replication augmentation in cells, fold increase;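 active means peak rise of 1.5-fold or more in the series; tested in PC3 cells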;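 further: first round at 10 µM; read as green reporter fluorescence; hits show the peak of a series up to 25 µM; 1 = signal of infected wells without compound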
PKD1 kinase inh – inhibitors of human PKD1 kinase | actives 0.056% (n = 200,000) | PKD1 kinase fluorescence polarization assay | AID 797 | inhibition, %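 (about 10 µM by stock and volumes)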 | Q15139;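 active means inhibition of 50% or more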;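 further: controls were vehicle for no effect and a reference inhibitor for full effect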
GALR2 ag – activates the human galanin receptor 2. GALR2-expressing cells, agonist activation read-out. activation, %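 (tested at 5 µM)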. actives 0.48% (n = 140,000);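 active means above mean plus 3 SD of all compounds, about 5% in these data, not always enough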;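 further: 0% = vehicle buffer wells and 100% = reference agonist at full effect; tested in CHO reporter cells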
Target sequence (O43603 whole entry, looked up): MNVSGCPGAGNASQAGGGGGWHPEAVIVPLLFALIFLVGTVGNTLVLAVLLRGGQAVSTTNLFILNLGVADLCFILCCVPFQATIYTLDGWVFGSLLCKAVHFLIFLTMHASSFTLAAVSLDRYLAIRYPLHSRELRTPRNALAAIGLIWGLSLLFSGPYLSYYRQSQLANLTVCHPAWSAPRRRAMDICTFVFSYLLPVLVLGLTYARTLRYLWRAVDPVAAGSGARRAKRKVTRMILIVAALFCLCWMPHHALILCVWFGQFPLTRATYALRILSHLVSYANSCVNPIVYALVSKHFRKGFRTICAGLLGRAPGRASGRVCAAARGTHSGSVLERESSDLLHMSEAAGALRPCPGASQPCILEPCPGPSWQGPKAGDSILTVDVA
Insulin prom inh – TRM-6 insulin promoter activity inhibition. TRM-6 cells (human fetal islet line), insulin promoter-eGFP reporter, imaging; reporter expression induced with tamoxifen. inhibition, % at 2 µM. actives 0.9% (n = 130,000). AID 1273;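 active means inhibition above the mean plus 3 SD, with well images judged a real hit on visual review, cut at about 60% in these data, passing the limit was not always enough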
Insulin prom inh cell count – also measured in Insulin prom inh; calls as there; normalized cell count, %; measured here: cell count, toxicity; reference of the scale not given here;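 cells exposed to compound for 48 h; stained nuclei by imaging scaled within each plate; lower means fewer cells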
HSV augment primary fold – also measured in HSV augment; calls as there; fold increase; compound at 10 µM; measured here: primary screen fold increase 10 uM; tested in PC3 cells;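 GFP signal in the first replicate; 1 = infected wells without compound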
* hit, by the source's call; i = inactive; / = no result given; & = joins results of further samples.

Results follow in this order: RGS16-Gao, HSV augment primary fold, HSV augment, Insulin prom inh, GALR2 ag, Insulin prom inh cell count, PKD1 kinase inh
COCCNC(=O)c1ccc(N2CCC3(CC2)OCCO3)c([N+](=O)[O-])c1
 : 78, 0.93, i, 24, -0.8, 87, -9
CCc1nc(SCCO)c2oc3ccccc3c2n1
 : 99, 1.1, i, 33, -2.0, 187, 13
Cc1c(C(=O)N2CCN(c3ccc(F)cc3)CC2)sc2nc(-c3ccccc3)cn12
 : 126, /, /, /, -3.3, /, 0
O=C(c1ccc(F)cc1)C1CCN(C(=S)Nc2ccccc2)CC1
 : 110, 0.9, i, -7, -1.8, 114, -8
Cc1cc(C)cc(NC(=O)c2ccccc2NC(=O)CCC(=O)O)c1
 : 100, 1, i, 23, 0.8, 124, 18
Cc1ccccc1NC(=O)c1ccc(S(=O)(=O)N(C)C)cc1
 : 103, 1.1, i, /, -2.5, /, -14
Cc1ccc(NC(=O)c2ccc([N+](=O)[O-])o2)c(C)c1
 : 103, 0.76, i, -47, /, 77, -5
O=C(Cn1nnc(-c2cccc(C(F)(F)F)c2)n1)NNS(=O)(=O)c1cccc(C(F)(F)F)c1
 : 86, 0.85, i, /, /, /, /
Cc1sc2ncnc(Sc3ccccc3C(=O)Nc3ccccc3Cl)c2c1C
 : 98, 1.1, i, /, -1.5, /, -4
Cc1onc(-c2c(Cl)cccc2Cl)c1C(=O)Nc1ccc(Cl)cn1
 : 89, 0.99, i, /, /, /, /
COCCn1c(SCC(=O)Nc2cccc(OC)c2)nnc1-c1ccc(Cl)cc1
 : 107, 0.87, i, -115, -1.6, 95, -1
C=CCc1ccc(O)c(-c2cc(CC=C)ccc2O)c1
 : 97, 0.86, i, /, /, /, 0
COc1cc(CNCCc2c[nH]c3ccccc23)ccc1OCc1ccccc1F
 : 106, 0.66, i, /, -0.5, /, 16
Cc1cc(OCC(=O)NCCO)cc(C)c1Cl
 : 99, 1, i, -22, -0.7, 63, -21
Cn1c2ccccc2c2nnc(SCC(=O)NCc3ccoc3)nc21
 : 100, 0.7, i, /, /, /, -2
CCOc1ccccc1NC(=O)CC1NCCNC1=O (stereo unspecified)
 : 103, 0.89, i, /, -0.3, /, -8
O=C(Cn1cnc2ccccc2c1=O)N1CCN(Cc2ccccc2)CC1
 : 102, 0.88, i, 32, -1.0, 99, 3
Cc1ccc(S(=O)(=O)N2CCN(c3ccccc3)CC2)cc1C(N)=O
 : 97, 1, i, 19, /, 143, 2
Cc1cc(C(F)(F)F)nn1CC(=O)NCc1ccco1
 : 88, 1.1, i, 22, /, 63, -5
Cn1nnnc1SC1CC(=O)N(c2ccccc2)C1=O (stereo unspecified)
 : 100, 0.91, i, /, /, /, -9

Additional structures follow.
Results follow in this order: RGS16-Gao, HSV augment primary fold, HSV augment, Insulin prom inh, GALR2 ag, Insulin prom inh cell count, PKD1 kinase inh
c1ccc2c(c1)nc1n2CCN1CCNC1CCCCC1
 : 102, 0.96, i, /, -1.4, /, 4
CCOC(=O)CCSc1nc(C)c2cc(OC)ccc2n1
 : 104, 0.82, i, -8, -2.4, 138, -2
Cn1c(=O)[nH]c(=O)c2c1nc(N/N=C/c1ccncc1)n2Cc1ccc(F)cc1
 : 92, 0.83, i, /, /, /, /
CCOc1cc(CNCCSc2nnnn2C)cc(Br)c1OCc1ccc(F)cc1
 : 99, 0.97, i, /, -1.6, /, -3
COc1cccc(NC(=O)COC(=O)c2c3c(nc4ccccc24)CCC(C)C3)c1 (stereo unspecified)
 : 102, 0.73, i, -8, 0.3, 163, -3
Cc1nc(Nc2ccc(Cl)c(Cl)c2)sc1C(=O)Nc1ccccc1
 : 107, 0.94, i, /, 0.6, /, 1
COc1cc2c(cc1NC(=O)c1cccc([N+](=O)[O-])c1C)oc1ccccc12
 : 93, 0.8, i, /, -2.9, /, -4
O=c1[nH]c(CSc2nnnn2-c2ccc(Cl)cc2)nc2ccccc12
 : 106, 1.1, i, -17, /, 125, -5
COc1ccc(-n2nnc3c(=O)n(CC(=O)N4CCCc5ccccc54)cnc32)cc1
 : /, 1.1, i, /, -0.8, /, 0
Cc1cccc(Nc2ncnc3nc[nH]c23)c1
 : 100, 1.1, i, /, -2.0, /, -6
CCCN1Cc2cccc(C(=O)N3CCN(c4ccccc4)CC3)c2C1=O
 : 103, 0.84, i, -7, -1.4, 96, 1
CCC(=O)Nc1ccc(C(=O)NNC(=O)c2cc([N+](=O)[O-])cc([N+](=O)[O-])c2)cc1
 : 96, 1.1, i, -7, /, 121, 4
O=C(OCc1c(Cl)cccc1Cl)c1ccncc1
 : 95, 0.97, i, /, -1.1, /, -11
CCN(CC(=O)NCCc1ccc(S(N)(=O)=O)cc1)Cc1nc2cc(OC)c(OC)cc2c(=O)[nH]1
 : 92, 0.97, i, 13, -3.3, 77, -5
C/C(CC(=O)NCc1ccco1)=N\NC(=O)Cc1cccc2ccccc12
 : 102, 0.97, i, 29, -1.9, 93, -2
CC(=O)N(c1c(C)n(C)n(-c2ccccc2)c1=O)C1(C(=O)NC2CCCCC2)CCCCC1
 : 90, 0.9, i, -10, -1.4, 74, -7
Cc1ccccc1S(=O)(=O)Cc1ccc(C(=O)NCCCN2CCN(C)CC2)o1
 : 100, 0.96, i, /, -2.2, /, 4
COCCn1c(NCc2ccco2)nc2c1c(=O)[nH]c(=O)n2C
 : 142, 0.91, i, -10, /, 84, 3
COC(=O)C(C)N(C(=O)c1ccc(C(=O)c2ccccc2)cc1)c1c(C)cccc1C (stereo unspecified)
 : 106, 0.98, i, -50, 0.1, 119, 3
COc1ccc(-c2nc(SC(CC(=O)NCCO)c3cccs3)n[nH]2)cc1 (stereo unspecified)
 : 92, 0.91, i, /, /, /, -3

(listing goes on)
Results follow in this order: RGS16-Gao, HSV augment primary fold, HSV augment, Insulin prom inh, GALR2 ag, Insulin prom inh cell count, PKD1 kinase inh
CCOC(=O)c1cc(-c2ccccc2)sc1NC(=O)CN1C(=O)NC(CC)(c2ccc(F)cc2)C1=O (stereo unspecified)
 : 97, 0.69, i, 5, -1.0, 75, 5
CC(=O)/C(=N\Nc1ccccc1)Sc1nnc(-c2ccccc2)n1-c1ccccc1
 : 102, 0.98, i, -54, 0.0, 99, -1
Cc1c(C(=O)N2CCc3ccccc32)cnn1C
 : 110, 0.98, i, 0, -0.8, 175, 10
CC(C)=NNC(=O)c1c(O)c2ccccc2[nH]c1=O
 : 93, 0.84, i, /, /, /, /
CCNC(=O)CCSc1nnc(-c2ccco2)o1
 : 96, 1, i, 17, 0.5, 81, -2
CCn1cc([N+](=O)[O-])c(C(=O)Nc2nc(-c3ccc(C)cc3)c(C)s2)n1
 : 103, /, /, -27, 0.3, 106, -3
O=C(NNS(=O)(=O)c1ccccc1Cl)c1nn(-c2ccc(F)cc2)ccc1=O
 : 107, 0.95, i, /, /, /, /
Cc1ccc(N(C(C)C(=O)N2CCC(C)CC2)S(C)(=O)=O)cc1C (stereo unspecified)
 : 104, 1, i, 6, -0.8, 108, -7
CC[C@@]1(O)C(=O)OCc2c1cc1n(c2=O)Cc2cc3c(N)cccc3nc2-1
 : 100, 0.54, i, /, /, /, /
O=[N+]([O-])c1cccc(-c2nnc3ccc4ccccc4n23)c1
 : 104, 0.9, i, -70, 0.4, 77, -2
CN(c1ccc(C(=O)Nc2ccc3c(c2)OCCO3)cc1)S(C)(=O)=O
 : 100, 0.98, i, 9, -2.6, 154, 3
O=C(CCNS(=O)(=O)c1ccc2c(c1)CCC(=O)N2)NCc1ccc2c(c1)OCO2
 : 99, 0.99, i, /, -3.3, /, -5
O=C(C1CCN(S(=O)(=O)c2cccc3cccnc23)CC1)N1CCc2ccccc21
 : 110, 0.75, i, /, -1.5, /, -12
Cc1csc(NC(=O)c2cccc(C)c2C)n1
 : 94, 0.94, i, -5, -1.5, 113, -6
O=C(O)C1CCCCC1C(=O)NCCCc1ccccc1 (stereo unspecified)
 : 100, 0.91, i, -21, -2.9, 100, -5
NC(=O)CCn1ccc2ccccc21
 : 103, 0.9, i, -15, /, 59, 0
COCCn1c(SCC(=O)NC2CCCC2)nc2cccnc21
 : 99, 1, i, 17, /, 78, -1
Cc1cc(SCC(=O)c2ccc(O)c(O)c2)nc2ccccc12
 : 100, 0.79, i, -87, /, 126, -8
CCN(C(=O)CSc1cc(C)c2ccccc2n1)C1CCS(=O)(=O)C1 (stereo unspecified)
 : 8.0*, 0.93, i, -65, /, 72, -4
Cc1cc(C)c(NC(=O)COC(=O)CSc2ccc(Br)cc2C)c(C)c1
 : 106, 0.98, i, -43, -3.0, 52, 2

(listing goes on)
Results follow in this order: RGS16-Gao, HSV augment primary fold, HSV augment, Insulin prom inh, GALR2 ag, Insulin prom inh cell count, PKD1 kinase inh
CC(C)(C)C(=O)NC(=S)Nc1ccc(F)cc1
 : 99, 0.95, i, -47, 0.7, 130, 5
CCCc1ccc(-c2cc(C(=O)NC3=NCCS3)c3ccccc3n2)cc1
 : 100, 0.9, i, /, 0.0, /, -1
Cc1nnn(C23CC4CC(CC(C4)C2)C3)n1
 : 101, 0.82, i, -52, -0.5, 130, -5
Cc1cc(C(=O)N2CCCC(C(=O)c3cccc4ccccc34)C2)nc(C)n1 (stereo unspecified)
 : 99, 0.96, i, /, /, /, 4
NNC(=O)Cn1c(COc2ccc(Cl)cc2)nc2ccccc21
 : 108, 0.94, i, -40, -0.1, 127, 4
O=C(NC1CCCC1)c1ccc(Cn2c(=O)[nH]c3ccsc3c2=O)cc1
 : 97, 1, i, /, /, /, /
CCc1nn2c(N)c(/C=C3\C=Nc4ccccc43)c(=O)nc2s1
 : 106&31, 0.86&0.93, i, -6, -0.9, 141, -5
COc1ccc(CNc2nc(C)c([N+](=O)[O-])c(C)c2C#N)cc1
 : 103, 1, i, /, 0.8, /, -10
O=c1[nH]c2cccnc2n1-c1cccc([N+](=O)[O-])c1
 : 100, 0.92, i, /, /, /, /
COc1cccc(C(=O)CN(C(=O)c2ccc(Cl)cc2Cl)N2C(=O)c3ccccc3C2=O)c1
 : 104, 0.97, i, 19, -0.5, 128, 0
Cc1nc2ccccc2nc(C)c1=NOCc1ccc(Cl)cc1Cl
 : 90, 1.1, i, 19, -3.2, 100, -2
CCCNC(=O)COC(=O)/C=C/c1cccc(F)c1
 : 106, 0.97, i, 39, /, 158, -3
CC(Oc1ccccc1Br)C(=O)N1CCc2ccccc21 (stereo unspecified)
 : 104, 0.93, i, /, -0.6, /, 5
COc1ccc(CNC(=O)C(C)c2ccc([N+](=O)[O-])cc2)cc1 (stereo unspecified)
 : 100, 1.2, i, 12, /, 76, -4
CC(C)N1C(=O)CCC1C(=O)NCc1cccs1 (stereo unspecified)
 : 100, 1.1, i, 0, /, 120, -3
COC(=O)c1ccc(C)c(NC(=O)CCc2cc(OC)c(OC)c(OC)c2)c1
 : 100, 1.1, i, -123, -3.1, 127, -1
CCc1ccc(C(=O)COC(=O)CNC(=O)COc2ccccc2)cc1
 : 110, 0.97, i, 33, -1.3, 73, -4
O=c1[nH]cnc2sc(-c3ccccc3)cc12
 : 93, 0.92, i, 21, -2.5, 175, -4
O=C(CN1C(=O)c2ccccc2S1(=O)=O)c1ccc2c(c1)OCCO2
 : 114, 1.2, i, /, /, /, /
Cn1ncc(C#N)c1NC(=O)c1cc(-c2ccccc2Cl)on1
 : 85, 0.95, i, -29, -0.2, 251, -1

The list continues.
Results follow in this order: RGS16-Gao, HSV augment primary fold, HSV augment, Insulin prom inh, GALR2 ag, Insulin prom inh cell count, PKD1 kinase inh
O=C(O)c1cnn2c1NC(c1cccs1)CC2C(F)(F)F (stereo unspecified)
 : 104, 1, i, /, -0.1, /, 6
COC(=O)C(C)N1C(=O)S/C(=C/c2cc(C)n(-c3ccccn3)c2C)C1=O (stereo unspecified)
 : 98, /, /, -46, 0.7, 147, 1
O=C(COC(=O)CNC(=O)c1sc2ccccc2c1Cl)Nc1cc(Cl)cc(Cl)c1
 : 103, 1, i, /, /, /, 1
C[C@@H]1CCC[C@]2(O[C@H](CCO)C[C@H](O)[C@H]2O)O1
 : 99, 0.98, i, /, /, /, /
CCOC(=O)COc1ccc(S(=O)(=O)NCCC2=CCCCC2)cc1
 : 111, 0.64, i, -9, 0.4, 262, -4
N#Cc1ccc(CNc2cnccn2)cc1
 : 103, 1.1, i, 0, -1.9, 100, -1
COCCNC(=O)CS(=O)Cc1nc(-c2ccc(Cl)cc2)oc1C (stereo unspecified)
 : 104, /, /, /, -2.5, /, 7
Cc1cccc2sc(NNC(=O)c3ccc(S(=O)(=O)N4CCc5ccccc5C4)cc3)nc12
 : 194, /, /, 71*, -0.9, 103*, -9
